Screening results from PubChem BioAssay.
INS promoter inh = TRM-6 insulin promoter activity inhibition | TRM-6 cells (human fetal islet line), insulin promoter-eGFP reporter, imaging; reporter expression induced with tamoxifen | inhibition, % at 2 µM | 130,000 tested, 0.9% active;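 active = inhibition above the mean plus 3 SD, with well images judged a real hit on visual review, cut at about 60% in these data, passing the limit was not always enough; inconclusive = inhibition over the cutoff but images rejected on review; inactive = inhibition not above the cutoff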
PKD1 kinase inh = PKD1 (human) kinase inhibition | AID 797 | PKD1 kinase fluorescence polarization assay | Q15139 | inhibition, %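 (about 10 µM by stock and volumes)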 | 200,000 tested, 0.056% active;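 active = inhibition of 50% or more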;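 note: controls were vehicle for no effect and a reference inhibitor for full effect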
Target sequence (Q15139 whole entry, looked up): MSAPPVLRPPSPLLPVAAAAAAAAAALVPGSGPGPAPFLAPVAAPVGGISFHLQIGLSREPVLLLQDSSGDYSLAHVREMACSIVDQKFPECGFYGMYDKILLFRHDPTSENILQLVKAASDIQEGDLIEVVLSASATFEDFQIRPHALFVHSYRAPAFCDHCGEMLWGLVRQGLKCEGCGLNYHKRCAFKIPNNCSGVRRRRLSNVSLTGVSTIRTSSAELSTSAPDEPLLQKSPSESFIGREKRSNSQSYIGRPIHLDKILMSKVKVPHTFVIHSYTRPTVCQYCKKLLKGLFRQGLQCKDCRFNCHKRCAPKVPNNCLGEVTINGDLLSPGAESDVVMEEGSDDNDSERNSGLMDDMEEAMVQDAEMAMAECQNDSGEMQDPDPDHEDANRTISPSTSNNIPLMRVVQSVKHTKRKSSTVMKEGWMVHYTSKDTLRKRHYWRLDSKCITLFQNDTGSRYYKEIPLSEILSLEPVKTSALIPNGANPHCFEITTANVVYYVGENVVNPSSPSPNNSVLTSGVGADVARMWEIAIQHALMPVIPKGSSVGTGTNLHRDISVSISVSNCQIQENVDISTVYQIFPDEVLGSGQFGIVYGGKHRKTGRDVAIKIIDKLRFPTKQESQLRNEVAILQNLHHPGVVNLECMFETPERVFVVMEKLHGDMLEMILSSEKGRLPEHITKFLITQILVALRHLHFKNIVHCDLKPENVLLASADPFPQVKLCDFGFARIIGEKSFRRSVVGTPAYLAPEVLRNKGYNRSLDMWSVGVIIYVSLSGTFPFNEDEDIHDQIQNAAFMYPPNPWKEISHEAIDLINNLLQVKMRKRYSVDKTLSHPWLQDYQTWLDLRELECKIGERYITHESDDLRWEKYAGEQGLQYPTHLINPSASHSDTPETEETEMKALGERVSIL
HSV augment = HSV replication enhancement; HSV replication augmentation in cells, fold increase; maximum fold increase; 220,000 tested, 0.005% active;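 active = peak rise of 1.5-fold or more in the series; inconclusive = self-fluorescent or not available for retest; tested in PC3 cells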;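 note: first round at 10 µM; read as green reporter fluorescence; hits show the peak of a series up to 25 µM; 1 = signal of infected wells without compound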
GALR2 agonist = activates the human galanin receptor 2 | O43603 | GALR2-expressing cells, agonist activation read-out | activation, %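 (tested at 5 µM)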 | 140,000 tested, 0.48% active | AID 803;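 active = above mean plus 3 SD of all compounds, about 5% in these data, not always enough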;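 note: 0% = vehicle buffer wells and 100% = reference agonist at full effect; tested in CHO reporter cells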
RGS16-Gao HTS = regulators of human RGS16-Galphao interaction; O15492+P09471; bead-based flow cytometry RGS16-Galphao binding, fluorescence; actives lie on both sides; binding response (% of control), % at 10 µM; 220,000 tested, 0.38% active; AID 1441;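 active = below 25% or above 175%, edge rows of some plates excepted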;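 note: Galphao activated by GDP with aluminum fluoride before binding; 100% = wells without compound and 0% = beads without RGS; some results beyond the cut were filed as inactive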
INS promoter inh cell count = also measured in INS promoter inh; calls as there; normalized cell count, %; measured here: cell count, toxicity; reference of the scale not given here;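 cells exposed to compound for 48 h; stained nuclei by imaging scaled within each plate; lower means fewer cells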
HSV augment primary fold = further read-out of HSV augment, marked with its call; fold increase; compound at 10 µM; measured here: primary screen fold increase 10 uM; tested in PC3 cells;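 GFP signal in the first replicate; 1 = infected wells without compound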
Numbers without * were called inactive; i = inactive; ? = inconclusive; · = not tested or not shown. The order is random. Share with any hit: about 1.3%.

SMILES	INS promoter inh	INS promoter inh cell count	PKD1 kinase inh	HSV augment	HSV augment primary fold	GALR2 agonist	RGS16-Gao HTS
CCN(CC)S(=O)(=O)c1ccc(-c2nnc(SCC(N)=O)n2CC)cc1	·	·	-3	i	0.95	·	100
O=C(CSc1ncccn1)N1CCN(S(=O)(=O)c2ccccc2)CC1	·	·	·	i	1.1	·	97
O=C(NC(=S)N1CCCCCC1)c1ccc(Cl)cc1Cl	·	·	-4	i	1.1	·	100
CCCOP(=O)(OCCC)C(Nc1cccc(C(F)(F)F)c1)c1ccc(C)cc1 (configuration not stated)	24	75	8	i	0.95	-1.7	100
Cc1cc(C)c2cc(C(O)c3nnnn3Cc3ccccc3)c(=O)[nH]c2c1 (configuration not stated)	·	·	1	i	0.96	-0.9	97
Cn1c(=O)oc2cc(S(=O)(=O)N3CCCC(C(=O)N4CCn5c4nc4ccccc45)C3)ccc21 (configuration not stated)	·	·	2	i	0.93	-0.7	99
O=C(Nc1cc(C(F)(F)F)ccc1N1CCOCC1)c1cn2ccccc2n1	-36	150	0	i	0.85	-1.0	101
Cc1cc(C)cc(NC(=O)c2cc(=O)c3ccccc3o2)c1	11	132	-1	i	1.1	·	139
COCC(=O)n1nc(NCc2ccc(OC)cc2)nc1NCc1ccc(OC)cc1	-133	88	-4	i	0.9	-1.0	103
Cc1ccc(Cn2c(C(=O)O)cc3sccc32)cc1	50	106	-1	i	0.88	-1.1	103
O=C(Nc1ccc(F)c(Cl)c1)Nc1ccc(Cl)cn1	·	·	0	i	0.87	·	99
COC(=O)c1sc2ncn(-n3c(C)ccc3C)c(=O)c2c1C	26	131	5	·	·	-4.3	104
CCN(CC)S(=O)(=O)c1cc(-c2nnc(-c3ccc(Br)cc3)o2)ccc1Br	72	90	-4	i	1.3	-3.5	116
Fc1cccc(Cl)c1Cc1noc(/C=C/c2ccccc2)n1	47	85	6	i	0.94	-2.2	100
CC(=O)Nc1sc(N/N=C/c2ccccc2F)nc1-c1ccc(C)cc1	·	·	·	i	0.95	·	96
COc1ccc(C(C(=O)NC2CCCCC2)N(C(=O)CCl)c2ccc(Cl)cc2)cc1 (configuration not stated)	·	·	-3	i	0.61	0.6	118
CCNS(=O)(=O)c1ccc(CCC(=O)O)cc1	10	157	-6	i	1	·	89
CSc1ncccc1C(=O)Nc1nc2ccc(Oc3ccccc3)cc2s1	·	·	-7	i	0.9	-0.1	106
Cc1cnc(NC(=O)CN(C)S(=O)(=O)c2ccc(Cl)cc2)s1	-48	102	-7	i	0.91	-1.9	98
CC(=O)Nc1c(C(=O)O)oc2ccc(Cl)cc12	-36	150	3	·	·	-0.1	75
COc1ccc(C(C(C(=O)c2cccs2)N2CCOCC2)N2CCOCC2)cc1OC (configuration not stated)	31	134	-11	i	0.83	0.2	99
COc1ccc2c(=O)cc(C(F)(F)C(F)(F)F)oc2c1	·	·	0	i	0.92	-1.6	101
Cc1cccc(NCc2ccccc2O)c1	-110	120	4	i	0.98	-1.3	57
COc1cc2c(cc1OC)CN(Cc1nc3ccsc3c(=O)[nH]1)CC2	58	104	-11	i	1	-1.1	101
CC1CCN(CCCNC(=O)c2cc3sccc3n2C)CC1	·	·	-15	i	1	-0.5	105
Additional results:
SMILES	INS promoter inh	INS promoter inh cell count	PKD1 kinase inh	HSV augment	HSV augment primary fold	GALR2 agonist	RGS16-Gao HTS
CS(=O)(=O)N(CC(=O)N1CCCCCC1)c1ccccc1	44	132	-5	i	1.1	-2.6	107
CN(C)CCCNC(=O)c1cc2sc3ccccc3c2s1	-26	124	-2	i	0.7	·	107
CCOC(=O)N1CCN(C(=O)c2ccc(Cn3c(=S)[nH]c4cc5c(cc4c3=O)OCO5)cc2)CC1	6	133	-6	i	0.95	0.6	102
NC(=O)c1ccc(N2CCCCC2)c(N2C(=O)C3C4C=CC(C4)C3C2=O)c1 (configuration not stated)	0	99	-9	i	1	-1.4	97
CC1(C)CC(=O)c2sc(NC(=O)c3ccccc3)nc2C1	-16	101	-6	i	1.1	·	99
COc1cc(/C=C2/NC(=O)N(Cc3ccccc3F)C2=O)cc(OC)c1O	·	·	-10	?	·	·	103
CCN1CCN(C(=O)N[C@@H](C(=O)N[C@@H]2C(=O)N3[C@@H]2SC(C)(C)[C@@H]3C(=O)O)c2ccccc2)C(=O)C1=O	0	108	2	i	0.7	-0.7	104
O=S1(=O)N=C(N2CCN(c3ccc(F)cc3)CC2)c2ccccc21	9	102	-4	i	0.95	-0.9	108
CN(CC(=O)OCC(=O)NCC(F)(F)F)S(=O)(=O)c1ccc(Cl)cc1	67	106	-8	i	0.94	·	95
Nc1ccc(-c2nc3nc(N)nc(N)c3nc2-c2ccc(N)cc2)cc1	·	·	·	i	1.1	·	95
O=C1CSC(c2ccccc2)N1c1nc(-c2ccc(Cl)cc2Cl)cs1 (configuration not stated)	-43	117	5	i	0.92	-2.3	90
CN(c1ccccc1C(=O)Nc1ccc(S(=O)(=O)N2CCCC2)cc1)S(C)(=O)=O	3	116	-4	i	0.94	-0.5	103
N#Cc1c(N2CCCCC2)nc(N)c2c(N)nc(SCC(=O)O)cc12	·	·	·	i	1.3	·	114
COc1ccc(/C=N/n2c(N)nc(-c3ccccc3)c2-c2ccccc2)cc1	5	247	5	i	0.94	0.7	103
COc1ccc(-c2csc3nc(-c4ccccc4OC)oc(=O)c23)cc1	·	·	-2	i	0.67	·	100
Cc1noc(/C=C/NCc2cccnc2)c1S(=O)(=O)N(C)CC(=O)N1CCc2ccccc21	·	·	-10	i	0.9	-3.1	105
CN(C)c1ccc(P(=O)(Nc2ccc([N+](=O)[O-])cc2)N2CCOCC2)c(NC(=O)c2cccs2)c1 (configuration not stated)	·	·	13	i	0.87	0.9	100
COC(=O)CNC(=O)Cc1c(F)cccc1Cl	·	·	3	i	0.98	-2.4	98
Cc1nnc(SCC(=O)NCCc2ccccc2)s1	-79	131	-3	i	0.74	·	100
O=C(c1cccs1)N1CCN=C1SCc1cccnc1	·	·	-2	i	0.8	-0.3	110
COC(=O)c1nnn(-c2nc(N3CCOCC3)nc(N3CCOCC3)n2)c1C	·	·	3	i	0.98	·	99
CC(C)c1onc(C(=O)NCCc2ccccc2)c1[N+](=O)[O-]	-18	92	3	i	0.98	·	98
Cc1ccc(Nc2cc(=O)[nH]c(=O)[nH]2)cc1C	12	89	1	i	1	·	104
CCOC(=O)c1cnc(-c2ccccc2)nc1Oc1cccc(Cl)c1	36	106	-7	i	1.1	-1.8	98
O=C(COC(=O)c1ccc(S(=O)(=O)N2CCOCC2)cc1)NC1CCCCCC1	·	·	-8	i	0.97	-2.6	103
The listing continues:
SMILES	INS promoter inh	INS promoter inh cell count	PKD1 kinase inh	HSV augment	HSV augment primary fold	GALR2 agonist	RGS16-Gao HTS
Cc1cc(=O)oc2cc(OCC(=O)OCC(=O)Nc3ccccc3Br)ccc12	·	·	·	i	0.97	·	99
O=C(c1cccs1)n1nc(NCc2ccccc2)nc1NCc1ccccc1	-20	70	-1	i	0.93	-0.7	95
COc1ccc(OCC(=O)NNc2nc3ccccc3s2)cc1	·	·	·	i	1.1	·	97
CCOC(=O)CSc1nnc(NC(=O)c2cccc([N+](=O)[O-])c2)s1	·	·	-4	i	0.95	-1.0	99
O=C(CCSc1ccc(Cl)cc1)Nc1cccnc1	-70	74	-5	i	1	·	96
CN(C)C(=C(C#N)C#N)N1CCN(c2ccc(Cl)c(Cl)c2)CC1	41	118	4	i	0.88	-1.1	101
CCOC(=O)c1c(-c2ccccc2)csc1NC(=O)C(C)NCCCN1CCOCC1 (configuration not stated)	-38	114	0	i	0.8	·	107
CCN(CC)c1ccc(C2CC(=O)NC3=C2C(=O)CC(C)(C)C3)cc1 (configuration not stated)	50	70	-1	i	0.98	-1.6	104
COc1ccc(Cl)cc1NC(=O)NCC1CCN(C(=O)OC(C)(C)C)CC1	·	·	·	i	0.91	·	94
O=C(NCc1cccs1)c1ccc2ccccc2n1	-27	115	0	i	1	·	111
CCCn1c(=O)[nH]c(=O)c2c1nc(-c1ccccc1)n2CCN1CCOCC1	31	82	-8	i	0.93	-1.4	95
CCOc1ccc(CN2CCN(Cc3cnc(N4CCOCC4)s3)CC2CCO)cc1 (configuration not stated)	·	·	-6	i	1	·	104
CC(O)CNc1nc2c(c(=O)n(C)c(=O)n2C)n1CCc1ccccc1 (configuration not stated)	28	127	-8	i	0.96	-0.9	104
Cn1cnnc1SCc1nnc(-c2ccccc2Br)o1	-17	90	0	i	1.1	·	113
Cc1n[nH]c(C)c1CNCc1c(C(=O)N2CCCCCCC2)nc2ccc(Cl)cn12	·	·	·	i	0.82	·	115
C=CCN=C(NC#N)SCC(=O)c1cccc(OC)c1	·	·	2	i	0.94	-1.9	-801
C=CCSc1nnc(-c2ccccc2NC(=O)CC)c(=O)[nH]1	-53	132	-7	i	1	-2.3	100
O=C(O)C1C2C=CC(O2)C1C(=O)Nc1ccccc1C(F)(F)F (configuration not stated)	-19	148	-1	i	0.96	-1.9	101
O=C(NC(NC1CCS(=O)(=O)C1)C(Cl)(Cl)Cl)c1cccc(Cl)c1 (configuration not stated)	-16	43	-10	i	0.98	1.9	101
CN1/C(=C\C(=O)CSc2nnc(NCc3ccccc3)s2)C(C)(C)c2ccccc21	17	106	10	i	0.98	-0.4	38
Cc1nn(-c2ccc(Cl)cc2)c(=O)c2ccccc12	·	·	1	i	0.92	·	102
O=C(CCn1c(=S)[nH]c2cc3c(cc2c1=O)OCO3)N1CCc2ccccc2C1	53	61	0	·	·	-2.0	110
CCN(CC)CCCN=Cc1c(-c2ccccc2)[nH]n(-c2nc3ccccc3s2)c1=O	·	·	·	i	1.1	·	104
C/C(N)=C(/C#N)C(=O)COC(=O)COc1ccc(Cl)cc1C	·	·	2	i	1	-0.5	107
Oc1c(C(c2ccccn2)N2CCCCC2)cc(Cl)c2cccnc12 (configuration not stated)	44	136	-5	i	0.97	·	99
Next results follow:
SMILES	INS promoter inh	INS promoter inh cell count	PKD1 kinase inh	HSV augment	HSV augment primary fold	GALR2 agonist	RGS16-Gao HTS
COC(=O)c1ccc(COc2ccccc2/C=C(\C#N)C(=O)Nc2ccccc2C)cc1	44	69	-3	i	1	-1.6	78
Cc1cc(C(=O)CN2CCCC2)c(C)n1-c1ccc(Cl)cc1	·	·	-5	i	1.1	·	99
Cc1ccc(-c2cnc3cc(C)nn3c2)cc1	27	127	3	i	1.2	·	72
O=C(N/N=C/c1ccc(C(=O)O)cc1)C1=NNC(c2ccccc2)(c2ccccc2)C1	·	·	-5	i	0.77	·	100
N#CC(=C=[N-])/C=C(\C(=O)c1ccccc1)[n+]1ccccc1	·	·	·	i	1.3	·	101
CCOC(=O)N1CCC(C(N)=O)CC1	·	·	7	i	0.86	-0.8	99

Eleven entries from above in another layout.
Results follow in this order: INS promoter inh	INS promoter inh cell count	PKD1 kinase inh	HSV augment	HSV augment primary fold	GALR2 agonist	RGS16-Gao HTS
O=C(NC(NC1CCS(=O)(=O)C1)C(Cl)(Cl)Cl)c1cccc(Cl)c1 (configuration not stated)
    -16	43	-10	i	0.98	1.9	101
CN1/C(=C\C(=O)CSc2nnc(NCc3ccccc3)s2)C(C)(C)c2ccccc21
    17	106	10	i	0.98	-0.4	38
Cc1nn(-c2ccc(Cl)cc2)c(=O)c2ccccc12
    ·	·	1	i	0.92	·	102
O=C(CCn1c(=S)[nH]c2cc3c(cc2c1=O)OCO3)N1CCc2ccccc2C1
    53	61	0	·	·	-2.0	110
CCN(CC)CCCN=Cc1c(-c2ccccc2)[nH]n(-c2nc3ccccc3s2)c1=O
    ·	·	·	i	1.1	·	104
C/C(N)=C(/C#N)C(=O)COC(=O)COc1ccc(Cl)cc1C
    ·	·	2	i	1	-0.5	107
Oc1c(C(c2ccccn2)N2CCCCC2)cc(Cl)c2cccnc12 (configuration not stated)
    44	136	-5	i	0.97	·	99
COC(=O)c1ccc(COc2ccccc2/C=C(\C#N)C(=O)Nc2ccccc2C)cc1
    44	69	-3	i	1	-1.6	78
Cc1cc(C(=O)CN2CCCC2)c(C)n1-c1ccc(Cl)cc1
    ·	·	-5	i	1.1	·	99
Cc1ccc(-c2cnc3cc(C)nn3c2)cc1
    27	127	3	i	1.2	·	72
O=C(N/N=C/c1ccc(C(=O)O)cc1)C1=NNC(c2ccccc2)(c2ccccc2)C1
    ·	·	-5	i	0.77	·	100
